Screening results as filed in PubChem BioAssay.
Env fusion inh – HIV envelope-mediated fusion inhibition. HeLa-JRFL Env/CEM21 cell fusion, luciferase. inhibition, % at 12.3 µM. 360,000 tested, 1.1% active;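 active means mean replicate inhibition score of at least 50 and every replicate individually at or above 50; inconclusive means only one of the two criteria met; inactive means mean below 50 and not all replicates reaching 50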;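 further: 0% = plate neutral controls and 100% = maraviroc near 300 nM; one replicate is shown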
CSC inhib – cancer stem cell inhibition | 300,000 tested, 1.1% active | inhibition, % at 7.5 µM | AID 2717 | cancer stem cell-like cells viability, luminescence;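 active means mean at 75% or more and at least half the replicates too; inconclusive means mean and replicates disagree; tested in HMLE shEcad cells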;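 further: 0% = median of negative and 100% = median of positive control wells; the first replicate is given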
MT1-MMP act inh – inhibitors of human MT1-MMP activation | P50281 | HT1080 RFP-PRO-GFP cells, GFP/RFP ratio fluorescence, overnight; percent of plate control window, DMSO zero | GFP/RFP ratio change, % at 20 µM | 360,000 tested, 0.061% active | AID 651647;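 active means GFP/RFP ratio change of at least 30% with cell ATP level not reduced by more than half and red fluorescence within 50% of control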; further: strong numbers were not always called active
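Compound: 20 µM single dose, 1% DMSO / System: HT1080 RFP-PRO-GFP cells / Controls: DMSO and RFP-L50D-GFP cell wells / Read-out basis: GFP/RFP fluorescence ratio / Schedule: overnight compound exposure at 37 °C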
eIF4H inh – inhibitors of RNA binding by human eIF4H; Q15056; eIF4H fluorescence polarization binding assay; inhibition, % at 35 µM; 290,000 tested, 0.94% active;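 active means 50% or more with normal probe brightness, or confirmed in later tests; inconclusive means above 50% with abnormal brightness, or retests that disagree; inactive means below 50% or failed in later tests; about a fifth of its hits are not listed in these tables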;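 further: calls also rest on retests at 20 µM and on dose response follow-up; 0% = protein and probe with vehicle and 100% = probe without protein; strong numbers were not always called active; many hits fall short of the cut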
Rce1 inh – inhibitors of yeast Ras-converting enzyme; yeast membranes, quenched prenylated peptide cleavage fluorescence; calls only; 290,000 tested, 0.27% active; AID 2563;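 active means fall in fluorescence gain of 50% or more versus controls, with final raw signal at or below 3038400; inconclusive means same 50% fall but final raw signal above 3038400; inactive means fall in fluorescence gain under 50%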;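 further: plate controls were neutral control wells for no effect and wells lacking membranes for full effect; tested at 10 µM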
PABP polyA inh – PABP-poly(A) binding inhibition. P11940. PABP-poly(A) RNA binding, fluorescence polarization. inhibition, % at 35 µM. 290,000 tested, 1% active;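 active means 50% or more with normal probe brightness, or confirmed in later tests; inconclusive means above 50% with abnormal brightness, or retests that disagree; inactive means below 50% or failed in later tests; about a fifth of its hits are not listed in these tables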;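 further: calls also rest on retests at 20 µM and on dose response follow-up; controls were probe without protein and protein plus probe with vehicle; some compounds called inactive have numbers as strong as hits; many hits fall short of the cut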
Target sequence (P11940 whole entry, looked up): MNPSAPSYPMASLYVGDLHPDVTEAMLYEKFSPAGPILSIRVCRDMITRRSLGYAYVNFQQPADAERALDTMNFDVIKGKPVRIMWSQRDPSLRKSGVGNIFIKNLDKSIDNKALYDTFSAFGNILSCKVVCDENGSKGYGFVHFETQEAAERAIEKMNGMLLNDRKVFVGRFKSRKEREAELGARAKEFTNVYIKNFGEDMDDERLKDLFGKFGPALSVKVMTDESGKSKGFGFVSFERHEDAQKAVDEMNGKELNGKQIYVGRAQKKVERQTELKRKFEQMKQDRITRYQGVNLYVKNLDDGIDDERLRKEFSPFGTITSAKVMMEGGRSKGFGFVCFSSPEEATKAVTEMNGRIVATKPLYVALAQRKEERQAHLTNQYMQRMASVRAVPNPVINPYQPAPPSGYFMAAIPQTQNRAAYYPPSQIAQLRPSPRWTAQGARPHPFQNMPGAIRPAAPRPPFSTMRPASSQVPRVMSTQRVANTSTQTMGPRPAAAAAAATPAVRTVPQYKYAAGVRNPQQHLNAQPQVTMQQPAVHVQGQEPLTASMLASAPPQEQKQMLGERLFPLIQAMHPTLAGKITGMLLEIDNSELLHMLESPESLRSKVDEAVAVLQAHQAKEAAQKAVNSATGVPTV
Yeast UUG start – yeast start codon fidelity modulation; S. cerevisiae UUG-firefly luciferase reporter, luminescence/redox ratio; activity score, % at 18.7 µM; 350,000 tested, 0.13% active;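 active means replicate mean at a twofold rise or more, about +100% in these data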;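 further: firefly luciferase made from a UUG start codon reports start codon fidelity; reporter light over untreated wells divided by growth signal over untreated wells; some hits fall short of that in this replicate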
eIF4H inh retest – second read-out of eIF4H inh, no call of its own (marks repeat the call); inhibition, %; compound at 20 µM; confirmation average;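 mean of two retest wells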
PABP polyA inh retest – recorded beside PABP polyA inh, whose call it bears; inhibition, %; compound at 20 µM; confirmation repeats;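 mean of two retest wells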
MT1-MMP act inh RFP – also measured in MT1-MMP act inh; calls as there; RFP signal change, %; measured here: RFP expression control read;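 0 = vehicle wells; hits needed this value within 50% of zero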
Numbers without * were called inactive; i = inactive; ? = inconclusive; · = not tested or not shown; & = joins results of further samples.

SMILES	Env fusion inh	CSC inhib	MT1-MMP act inh	MT1-MMP act inh RFP	eIF4H inh	Rce1 inh	PABP polyA inh	Yeast UUG start	others
COCCCNC(=O)C[C@H]1C[C@H](C(=O)N(C(C)C)C(C)C)[C@@]2(C)c3[nH]c4cc(CCC(=O)N(C)C)ccc4c3CCN2C1=O	11	·	3	6	·	·	·	8
Cc1ccc(N2C(=O)CSC2c2cccnc2)cc1F (stereo unspecified)	-51	-2	-1	0	-9	i	-1	-10
CC(C)CCN1CCN(Cc2ccoc2)CC1CCO (stereo unspecified)	4	12	1	1	6	i	15	-27
CCc1cc(C=NC2CCCCC2)c(O)s1	-186	1	1	3	8	i	10	-5
CN1C(=O)CC(Sc2ncccc2C(=O)O)C1=O (stereo unspecified)	-73	14	5	4	-8	i	-11	-10
Cc1ccccc1OCc1nnc(SCC(=O)Nc2ccc(N3CCOCC3)cc2)n1C	7	-13	1	-1	-6	·	6	-26
CCC(Oc1ccccc1F)C(=O)NCCN1CCOCC1 (stereo unspecified)	-4	·	2	4	4	i	-16	-16
COc1ccccc1C(=O)NNC(=O)c1ccc(Cl)cc1	-17	-15	-2	0	-6	·	-1	·
CNc1oc(Cc2cccc3ccccc23)nc1C#N	-28	13	-2	-4	0	i	5	-9
CCNC(=O)/C(C#N)=C/c1c(N2CCOCC2)nc2ccccn2c1=O	-33	9	2	3	-6	i	-7	·
CCS(=O)(=O)C1=NN2C(=N)/C(=C\c3ccc(OC(=O)c4ccco4)c(Br)c3)C(=O)N=C2S1	·	-2	·	·	-6	i	8	·
Cc1ccc(N2C(=O)c3ccccc3C2(O)c2ccccc2)cc1 (stereo unspecified)	1	·	2	5	·	·	·	-7
CSc1ccccc1C(=O)N1CCCC(CCC(=O)NCc2ccc(F)c(F)c2)C1 (stereo unspecified)	16	-6	1	-9	-7	i	-4	5
C=C(C)C(=O)N1CC2(CC(c3cccc(NC(=O)/C=C\C=C/C)c3)=NO2)C[C@H]1C(N)=O (stereo partly specified)	3	7	0	0	-9	i	-1	-5
COc1ccc(/C=C2\C(=O)ON=C2c2ccccc2)cc1	-9	25	3	1	-6	i	4	-15

Already shown: entries from further up.
SMILES	Env fusion inh	CSC inhib	MT1-MMP act inh	MT1-MMP act inh RFP	eIF4H inh	Rce1 inh	PABP polyA inh	Yeast UUG start	others
COCCCNC(=O)C[C@H]1C[C@H](C(=O)N(C(C)C)C(C)C)[C@@]2(C)c3[nH]c4cc(CCC(=O)N(C)C)ccc4c3CCN2C1=O	11	·	3	6	·	·	·	8
Cc1ccc(N2C(=O)CSC2c2cccnc2)cc1F (stereo unspecified)	-51	-2	-1	0	-9	i	-1	-10
CC(C)CCN1CCN(Cc2ccoc2)CC1CCO (stereo unspecified)	4	12	1	1	6	i	15	-27
CCc1cc(C=NC2CCCCC2)c(O)s1	-186	1	1	3	8	i	10	-5

(list continues)
SMILES	Env fusion inh	CSC inhib	MT1-MMP act inh	MT1-MMP act inh RFP	eIF4H inh	Rce1 inh	PABP polyA inh	Yeast UUG start	others
CC(C)[C@H](NC(=O)N1CC(=O)Nc2ccccc21)C(=O)N[C@H](Cc1c[nH]c2ccccc12)C(=O)O	·	-7	0	2	-2	i	7	-9
Cc1nc(C)c(NC(=O)N2CCc3ccccc32)cc1NC(=O)N1CCc2ccccc21	·	-14	10	-2	-5	i	-14	-9
CC1=C(C)CC(C(=O)NCc2cccc(Cl)c2)C(C(=O)O)C1 (stereo unspecified)	19	1	-4	2	3	i	2	79
CN1CCN(c2nc(-c3ccccc3)nc3c2oc2ccccc23)CC1	·	-19	-8	-7	3	i	5	-13
O=C(COc1ccccc1[N+](=O)[O-])N1CCN(c2ccccn2)CC1	0	-8	-1	1	·	i	·	-14
CCOc1ccc(C(=O)CC(=O)C(=O)NCCc2ccc(OC)c(OC)c2)cc1	·	2	3	8	-4	i	4	-17
CSCCC(NC(=O)OCc1ccccc1)C(=O)O (stereo unspecified)	·	-8	2	4	-4	i	4	-17
CC(C)c1ccc(N(C(=O)c2ccc3c(c2)OCO3)C2C=CS(=O)(=O)C2)cc1 (stereo unspecified)	-5	-5	1	1	5	i	8	-6
Cc1ccc(NC(=O)C2Oc3ccccc3OC2C)cc1 (stereo unspecified)	4	-9	-1	-1	-4	i	-10	-11
CCCCN(C)Cc1c(C)[nH]c2c(Cl)cccc2c1=O	·	·	8	4	-7	i	-5	·
COC(OC)c1nc(SCC(=O)Nc2cccc(Cl)c2)ncc1C(=O)O	0	-9	-3	-5	4	i	12	-39
O=C1COc2ccc(S(=O)(=O)N3CCCCCC3)cc2N1	-2	-6	0	0	-6	i	-1	-7
CCN(CC)c1ccc(C(=O)NNC(=O)c2cccn2C)cc1	-52	11	0	-3	·	i	·	2
O=C(OCCOc1cccc(Cl)c1)c1cc(S(=O)(=O)N2CCCCC2)ccc1N1CCOCC1	75*	24	-2	-29	·	i	·	0
O=C(NC1CCCC1)c1cc(=O)[nH]c2ccccc12	0	1	-1	2	-7	i	-4	-11
Cc1nc(N2CCOCC2)nc(OCCN2CCOCC2)c1[N+](=O)[O-]	16	-8	1	3	10	i	-15	19
Cc1ccc(CC(=O)Nc2ccc(F)c([N+](=O)[O-])c2)cc1C	-13	-12	2	-2	-1	i	-10	·
CCOC(=O)N1CCN(C(=O)c2ccc(N(C)S(=O)(=O)c3ccc(C)cc3)cc2)CC1	8	46	4	-6	-6	i	3	11
CCOc1ncccc1C(=O)Nc1cc(S(=O)(=O)N2CCCCC2)ccc1Cl	8	·	3	0	·	·	·	0
O=C(Nc1nc(-c2ccc(S(=O)(=O)N3CCOCC3)cc2)cs1)c1ccccc1	?	28	7&1	-29&-32	-9	i	0	·
O=C(Cc1ccc(Cl)cc1)N1CCN(C(=O)c2ccco2)CC1	-34	-9	3	5	-6	i	-4	-11
O=C(COC(=O)/C=C/c1ccccc1)Nc1cccnc1Cl	-3	-8	1	2	·	i	·	-13
COC(=O)C1C(O)=C(C(C)=N)C(=O)CC1(C)C (stereo unspecified)	·	-13	-4	-1	14	i	-6	-3
N#Cc1cnn(-c2cc(Cl)ccc2Cl)c1N	-1	·	-4	0	·	·	·	-19
CCCCCCC(=O)N/N=C(\C)Cc1ccccc1	7	-5	3	3	-8	i	-4	·
O=C(/C=C/c1cccc(F)c1)Nc1ccc(S(=O)(=O)Nc2ncccn2)cc1	-4	-8	-5	-4	-1	i	22	-10
COc1ccccc1-n1cnnc1SCC(=O)N1CC(=O)Nc2ccccc21	·	13	1	0	-2	i	-4	-9
Cc1cc2ccccc2n1CCNC(=O)c1ccc(S(=O)(=O)N2CCCCC2)cc1	·	-6	24	25	?	i	11	-16
NS(=O)(=O)c1ccc(NC(=O)COC(=O)c2cc(Cl)ccc2[N+](=O)[O-])cc1	19	4	3	0	-7	i	3	-13
CCN(CC)c1ccc(CNc2nc3ccccc3n2CC)cc1	0	-9	4	5	-5	i	0	·
Nc1nccnc1C(=O)OCC(=O)c1ccc[nH]1	-3	8	-5	8	·	i	·	-17
O=C(COC(=O)c1c[nH]c2ccccc12)Nc1ccccc1	0	-11	1	3	·	·	·	-7
COCCNC(=O)C(c1ccc(C)cc1)N(C(=O)CCC(=O)Nc1ccccn1)c1ccc(F)cc1 (stereo unspecified)	-1	·	-3	4	-10	i	2	-5
CC(C)c1ccc(NC(=O)[C@@H](C)NC(=O)[C@@H]2Cc3ccccc3CN2)cc1	2	-10	2	4	2	i	9	·
NC(=O)c1ccsc1NC(=O)COC(=O)CNC(=O)c1ccc(Cl)cc1	10	-12	3	6	·	·	·	-5
Cc1occc1C(=O)NCc1cccc(CNC(=O)c2ccoc2C)c1	·	14	-9	2	68	i	31	4	eIF4H inh retest=24;PABP polyA inh retest=2
Cn1c(C(=O)OCC(=O)NCCc2ccccc2)cc2sccc21	·	5	-3	1	-4	i	-6	-9
CSc1ccc(CN2CCN(S(=O)(=O)Cc3ccccc3)CC2)cc1	-3	-17	0	-4	2	i	14	0
CC(=O)Nc1ccc(N(C(=O)c2ccco2)C(C(=O)NC2CCCC2)c2ccncc2)cc1 (stereo unspecified)	-16	0	0	3	-19	i	-3	-10
Nc1ncnc2nc(Sc3ccc(Cl)cc3)[nH]c12	·	·	4	3	6	i	2	-21
COc1ccc(C(=O)N(CCCO)Cc2cc3c(C)ccc(C)c3[nH]c2=O)cc1OC	·	·	4	6	-11	i	6	·
COc1ccc(OC)c(CCNC(=O)C2CCN(c3nnc(-n4cccc4)s3)CC2)c1	-7	-13	3	-1	2	i	-4	-17
Cc1oc(-c2ccoc2)nc1CN(Cc1ccccc1)CC1CC1	1	-9	0	7	-2	i	16	-15
COc1cccc(Nc2nc3ccccc3c(=O)[nH]2)c1	7	-3	-4	-1	-3	·	-11	-3
Cc1ccc(S(=O)(=O)c2cc3c(=O)n4cccc(C)c4nc3n(Cc3ccncc3)c2=N)cc1	·	14	-7	2	·	i	·	-12
Cc1nc(C)n(CCNS(=O)(=O)c2ccccc2)n1	-8	-2	4	2	4	i	2	-10
CC1CC(C)(C)CC2(C1)NC(=O)N(CC(=O)NC1CCCc3ccccc31)C2=O (stereo unspecified)	·	·	2	-2	-4	i	77	-20	eIF4H inh retest=1;PABP polyA inh retest=-6
COC(=O)/C(=N/Nc1ccccc1Cl)Sc1nnc(C(O)c2ccccc2)n1-c1ccccc1 (stereo unspecified)	16	6	2	4	8	i	9	·
O=C(NC(=S)Nc1ccc(Cl)c(C(=O)O)c1)c1ccc(OCc2ccccc2)cc1	·	2	0	3	-5	i	-4	-11
O=c1c2ccccc2c(-c2ccccc2)nn1-c1ccccc1	2	-11	0	-3	-1	i	6	5
COc1cc(C2CC(=O)Oc3c(C(CCN4CCOCC4)c4ccc(N(C)C)cc4)c(OC)cc(OC)c32)cc(OC)c1OC (stereo unspecified)	4	-21	2	1	-8	i	4	-2
CCCN(CCC)Cc1c(C(=O)N/N=C/c2c[nH]c3ccccc23)nnn1-c1nonc1N	7	·	4	3	-5	i	14	-3
CN(CCNC(=O)CCCOc1cc(=O)n(C)c2ccccc12)Cc1ccccc1	-8	-4	4	8	4	i	12	·
CCc1nnc(NC(=O)c2sc3nc4cc(C)ccc4cc3c2N)s1	-11	12	-185	-2	8	i	12	-22
COCc1ccc(C(=O)NC2CCSc3ccccc32)cc1 (stereo unspecified)	-6	-17	2	3	30	i	0	-6
COc1cccc(CC2(CO)CCN(Cc3cnc(N4CCOCC4)s3)CC2)c1	35	-13	1	-4	-7	i	4	·
CC(=O)Nc1cncc(-c2cccc(N(C)C)c2)n1	-52	·	4	5	·	·	·	-7
Cc1onc(-c2c(Cl)cccc2Cl)c1NC(=O)NNc1ccccc1	17	3	-4	0	-6	·	0	·
COc1ccc(/C=C2/C(=O)N(CC3CCCO3)C(=S)N2C)c(OC)c1 (stereo unspecified)	·	-5	-2	0	-8	i	6	-18
CCn1cnc2c1c(=O)n(CC(=O)OC)c(=O)n2Cc1ccccc1	2	-1	2	4	1	i	2	-17
Continuation.
SMILES	Env fusion inh	CSC inhib	MT1-MMP act inh	MT1-MMP act inh RFP	eIF4H inh	Rce1 inh	PABP polyA inh	Yeast UUG start	others
O=C(NCCS(=O)(=O)NCc1ccccc1Cl)c1ccc2c(c1)OCO2	-6	·	-1	1	·	i	·	-1
CCOC(=O)CSc1nc(N)c(C#N)c(-c2cccs2)c1C#N	·	-3	3	-12	-9	i	-4	-5
CC(=O)c1ccc(NC(=O)c2ccccc2-c2ccccc2C(=O)O)cc1	16	-6	-3	4	5	i	6	-7
COC(=O)c1cc(C(=O)OCC(=O)NC(=O)NCc2ccccc2)cc([N+](=O)[O-])c1	-1	-1	0	1	·	·	·	-17
